H5N1 antiviral: MDCK cell protection from H5N1 avian flu. cytopathic effect, luminescence, 72 h; stronger effect = higher value; no value below 0 was filed and about half of the inactive calls have no number; reference of the scale not given here. inhibition, % at 50 µM. hit rate 0.07% among 96,000; in the data active = inhibition above about 25%
Starred values were filed as active, the others as inactive; i = inactive. These rows are one share of the data; the hit share may differ from the screen's.

SMILES	H5N1 antiviral
Cc1oc(-c2ccc3c(c2)OCCO3)cc1C(=O)NC(CCC(=O)O)C(=O)O (stereo not drawn)	2.3
CCn1cc(C(=O)NCC2CCCO2)c(=O)c2cc(S(=O)(=O)N3CCCCCC3)ccc21 (stereo not drawn)	i
O=S(=O)(Nc1ccccn1)c1ccc(Cl)cc1	i
Cn1c(=O)[nH]c(=O)c2c1nc(OC(=O)c1ccccc1)n2CC(O)COc1ccccc1 (stereo not drawn)	i
CCCCN(C)C(=O)C1CCN(Cc2ccccn2)CC1	i
CCCOc1ccc(OCCCCNC(C)CC)cc1 (stereo not drawn)	i
Cc1nnc2sc(-c3cccc(NC(=O)c4cccnc4)c3)nn12	1.7
C=CCN(C(=O)Nc1ccc(Cl)cc1)C1CC(=O)N(c2ccc(OC)cc2)C1=O (stereo not drawn)	i
COc1cc(C(=O)Nc2cccc(-c3nncn3C)c2)cc(OC)c1OC	1.0
Cc1cccc2cc(CN(CCCO)C(=O)Nc3ccc(Cl)cc3)c(=O)[nH]c12	i
CSC1=C(C#N)C(C)C2=C(CC(C)(C)CC2=O)N1 (stereo not drawn)	i
COc1cc(NS(=O)(=O)c2ccc(NC(=O)c3ccc(C)o3)cc2)nc(OC)n1	0.3
Cc1n[nH]c(=O)nc1NCCc1ccccc1	0.5
CCCCC(=O)Nc1ccc(C(=O)N2CCCC(C(=O)OCC)C2)cc1 (stereo not drawn)	i
C=CCN1C(=O)CS/C1=N/c1nccs1	0.1
CSc1ccc(/C=N/n2c(C)cc(C)cc2=O)cc1	0.1
Cc1cccc(OCC(=O)NNC(=O)CSc2ncc(C#N)c(N)n2)c1	i
COC(=O)CSc1cc(C)nc2ccc(OC)cc12	0.1
CN1CCN(CCP(=O)(c2ccccc2)c2ccccc2)CC1	0.5
CC(=O)c1cc(-c2ccccc2)n(CC(=O)NC2CCCC2)c1C	i
COc1cccc(N=C2SC(C(=O)Nc3ccc(F)cc3)CC(=O)N2C)c1 (stereo not drawn)	i
O=C(NNc1ccc([N+](=O)[O-])cc1)C1CC2CCCC(C1)C2=O (stereo not drawn)	i
COCCOC(=O)c1c(C)oc2ccc(OC(=O)c3cccs3)cc12	i
CC(=O)c1nn(-c2cccc(Br)c2)cc1C(=O)c1ccccc1	i
C=C(C)C(=O)N1CC2(CC(c3cccc(NC(=O)c4ccccc4)c3)=NO2)C[C@@H]1C(N)=O (stereo partly drawn)	0.1
COC(=O)Nc1ccc(S(=O)(=O)N(CCO)CC(F)(F)C(F)F)cc1	1.2
Cc1cc(O)c(NC(=O)c2ccc(Br)o2)cc1C	i
CC(C)(SC(=S)N1CCOCC1)C(=O)O	0.1
Cc1cc(C)c2[nH]c(=S)cc(C)c2c1	0.8
CCCSc1nsc(N)n1	i
CC(C)(C)c1ccc(S(=O)(=O)Nc2cccnc2)cc1	2.4
COC(=O)C(C)Sc1nnc(Cc2cc(=O)[nH]c(=O)[nH]2)n1-c1cc(C)ccc1C (stereo not drawn)	1.6
COc1ccc(C(=O)Nc2nc3ccccc3[nH]2)cc1OC	i
Cc1cc2nc(C)n(CCCNC(=O)Nc3ccccc3)c2cc1C	i
N/C(=N\OC(=O)Cc1ccc(-c2ccccc2)cc1)c1cccc([N+](=O)[O-])c1	i
Cc1cc(CN2CCCCC2)oc1C(=O)O	i
Cc1noc(C)c1COC(=O)c1ccc2ccccc2n1	i
Cc1ccc2nc(NC(=O)CSc3ncnc4c3oc3ccccc34)sc2c1	0.1
COc1cc(C2C(C(=O)N3CCOCC3)=C(C)NC3=C2C(=O)CCC3)ccc1OC(C)=O (stereo not drawn)	0.2
Cn1c(=NC(=O)CN2C(=O)C3CC=CCC3C2=O)sc2ccccc21 (stereo not drawn)	0.7
COC(=O)c1cccc(NC(=O)c2ccc3c(c2)C(=O)N(CC2CCCO2)C3=O)c1 (stereo not drawn)	0.3
CCC(C(=O)Nc1ccccc1-c1ccccc1)c1ccccc1 (stereo not drawn)	0.1
Cc1cc(C)c2cc(CN(Cc3ccco3)C(=O)NCc3ccccc3)c(=O)[nH]c2c1	i
Cc1nc(C)c(C(=O)OCC(=O)N2CCN(c3ccccc3)CC2)s1	i
Cc1cc(NC2CCCCC2)nc(N2CCOCC2)n1	i

Some of these compounds in order of molecular weight, ascending.
SMILES	H5N1 antiviral
Cc1cc(CN2CCCCC2)oc1C(=O)O	i
Cc1cc(NC2CCCCC2)nc(N2CCOCC2)n1	i
Cc1noc(C)c1COC(=O)c1ccc2ccccc2n1	i
COc1ccc(C(=O)Nc2nc3ccccc3[nH]2)cc1OC	i
Cn1c(=NC(=O)CN2C(=O)C3CC=CCC3C2=O)sc2ccccc21 (stereo not drawn)	0.7
COC(=O)c1cccc(NC(=O)c2ccc3c(c2)C(=O)N(CC2CCCO2)C3=O)c1 (stereo not drawn)	0.3
COc1cc(C2C(C(=O)N3CCOCC3)=C(C)NC3=C2C(=O)CCC3)ccc1OC(C)=O (stereo not drawn)	0.2

(listing goes on)
SMILES	H5N1 antiviral
O=C(N/N=C/c1cccc(C(F)(F)F)c1)c1cc2c(s1)-c1ccccc1CC2	i
O=c1[nH][nH]c(C(F)(F)F)c1C=NCc1ccccc1Cl	0.8
O=C(c1cccs1)[C@@H]1[C@@H]2C(=O)N(Cc3ccc4c(c3)OCO4)C(=O)[C@@H]2C2c3ccccc3C=CN21 (stereo partly drawn)	0.8
Cc1cccc(-c2nc(CS(=O)CC(=O)N3CCN(C)CC3)c(C)o2)c1 (stereo not drawn)	0.3
COC(=O)[C@@H](NC(=O)NCc1ccc(F)cc1)C(C)C	i
O=C(CSc1nnc(-c2cnccn2)n1Cc1ccco1)c1ccccc1	0.6
FCCCOc1ccc(-c2nccc(-c3ccc(Br)cc3)n2)cc1	i
CCOC(=O)C(OC(=O)c1sc(=S)n(C)c1C)C(C)=O (stereo not drawn)	0.8
O=[N+]([O-])C1=C(Nc2cccc3ccccc23)CS(=O)(=O)C1	0.5
Cc1onc(-c2ccccc2Cl)c1C(=O)N1CCc2ccccc2C1	1.4
Cc1ccc(S(=O)(=O)n2nc(C)c(Br)c2C)c(C)c1C	0.1
COC(=O)c1cccc(N2C(=O)c3cccnc3C2=O)c1	i
CCN1CCn2c1nc(N1CCOCC1)nc2=O	i
O=C(CC1NCCNC1=O)Nc1ccc(Oc2ccccc2)cc1 (stereo not drawn)	0.4
COc1cccc(S(=O)(=O)NCc2ccc(C(=O)NCC3CCCO3)cc2)c1 (stereo not drawn)	i
COc1ccc(OC)c(NC(=O)CSCc2cnn(-c3ccccc3)c2-n2cccc2)c1	i
CCCCCCOc1ccc(CN2CCN(C)CC2)cc1	i
O=C(N/N=C/c1ccc(-c2ccc(S(=O)(=O)Nc3ncccn3)cc2)o1)c1cc2ccccc2cc1O	2.4
CC1=NN(c2ccccc2)C(=O)/C1=C/c1cc2cc(C)ccc2nc1N1CCCCC1	i
O=S(=O)(c1ccc(N2CCCC2c2nc3ccccc3s2)nc1)N1CCOCC1 (stereo not drawn)	1.9
CCc1ccccc1Nc1ccc(C(=O)O)cc1N	i
COc1cc(NC(=O)c2cc(-c3cccnc3)nc3ccc(C)cc23)c(OC)cc1Cl	0.7
O=C(NCC1CCCO1)c1ccc2ccccc2n1 (stereo not drawn)	0.3
CCN1CCN(CC(=O)c2c(C)n(C)c3ccc(OC)cc23)CC1	1.3
O=C(O)CNC(=O)c1ccc2c(c1)OCCO2	0.1
Cc1ccccc1-n1c(=O)cc(N2CCc3ccccc32)[nH]c1=O	i
Cc1ccccc1OCC(=O)NNC(=O)c1ccc(-c2ccccc2)cc1	i
O=C(Cn1cc(C(=O)c2ccco2)c2ccccc21)NCc1ccco1	1.7
CCOC(=O)N1CCC(n2c(SCC(=O)N3CCC(C)CC3)nc3ccccc3c2=O)CC1	0.1
CN(C)C(=O)COC(=O)[C@H](Cc1ccccc1)NC(=O)c1ccco1	i
COc1ccc(CNC(=O)CCCn2c(SCC#N)nc3cc4c(cc3c2=O)OCO4)cc1	i
Cn1c(=O)c2c(nc(NCc3ccccc3)n2C)n(C)c1=O	i
CCOC(=O)C1=C(C)NC(=O)C(C#N)C1c1ccco1 (stereo not drawn)	i
CCOc1ccc(NC(=O)C2CC(=O)N3CCCN=C3S2)cc1 (stereo not drawn)	i
CCC(=O)Nc1c(OC(=O)CC)ccc2c(C)cc(=O)oc12	i
CC1CCN(C(=O)C2CCN(S(=O)(=O)c3cccc4nonc34)CC2)CC1	0.9
Cc1ccccc1NC(=O)NCCCN1CCN(c2ccccc2)CC1	i
O=C(c1cn(-c2ccccc2)nc1-c1cccs1)N1CCN(c2ccc(F)cc2)CC1	0.6
COC(=O)c1c(NC(=O)c2ccc(C)c(S(=O)(=O)Nc3ccccc3C)c2)sc2c1CCCC2	i
Cn1c(=O)oc2cc(S(=O)(=O)N3CCc4ccccc4C3)ccc21	1.3
O=C(N/N=C/c1cccs1)C1CC(=O)N(c2ccccc2)C1 (stereo not drawn)	4.4
O=C(Nc1ccc(Cl)cc1)N(Cc1cccs1)Cc1cccs1	i
CC1CCCCN1CCNC(=O)C1CCN(S(=O)(=O)c2cccc3cccnc23)CC1 (stereo not drawn)	1.4
CCOc1ccc(C(=O)Nc2nncs2)cc1OCC	1.8
COC(=O)Nc1ccc2c(c1)N(C(=O)CCN1CCN3CCCC3C1)c1ccccc1CC2 (stereo not drawn)	0.3
CCc1cc2c(=O)c(-c3nc4ccccc4n3C)c(C)oc2c(CN(CC)CC)c1O	i
CCC(=O)Nc1nc2ccccc2n1Cc1ccc(C)cc1	0.1
CC1=C(C)CC2C(=O)N(Cc3ccccc3)C(=O)C2C1 (stereo not drawn)	1.4
O=C(c1cccc(F)c1)N1C2C=CC(C2)C1(C(F)(F)F)C(F)(F)F (stereo not drawn)	1.3
Cc1ccc2c(c1)[C@@H]1CN(C)CC[C@@H]1N2S(=O)(=O)c1ccc([N+](=O)[O-])cc1	1.3
CCOc1cc(C(N)=O)cc(OCC)c1OCC	1.5
CCOC(=O)C1CCN(CC(O)COc2ccc(C(C)(C)CC)cc2)CC1 (stereo not drawn)	0.7
Cc1ccc2c(c1)c(C)c(C)n2CC(O)Cn1nc(C)c(Br)c1C (stereo not drawn)	i
Fc1ccc(/C=N/n2c(-c3cccs3)n[nH]c2=S)cc1	2.1
CS(=O)(=O)N(CC(=O)N1CCCCC1)c1ccc(Cl)c(C(F)(F)F)c1	i
O=C1Nc2ccc(F)cc2C12Nc1ccccc1-c1nnc(SCc3ccccc3)nc1O2 (stereo not drawn)	i
Cc1oc2c(C)c3oc(=O)c4c(c3cc2c1C)CCC4	0.6
CCCCCCSc1nsc(N)n1	i
Cc1nc(NS(=O)(=O)c2ccccc2C)c2c3c(sc2n1)CCC3	i
CCCN1/C(=C(/C#N)C2=NS(=O)(=O)c3ccccc32)N(C)c2ccccc21	0.7

More structures
SMILES	H5N1 antiviral
CC(C)(C)n1nc2c(c1NC(=O)Cc1cccs1)CSC2	i
COc1ccc(NC(=O)c2ccccc2C)c(OC)c1	i
Cc1cccc(-c2noc(CCCC(=O)N3CCOCC3)n2)c1	i
CC(C)OC(=O)CSc1ncnc2c1cnn2Cc1ccccc1	i
Cc1ccccc1CN1CCCNC1=O	i
Cc1ccc(NC(=O)CNc2ccc(OC(C)C)cc2)cc1	0.4
COCCNC(=O)c1c(N)n(Cc2ccco2)c2nc3ccccc3nc12	i
CCCSC1=C(C#N)C(c2ccccc2C)CC(=O)N1 (stereo not drawn)	i
COc1cc(OC)nc(Oc2ccccc2C(=O)Oc2ccc(F)cc2Cl)n1	2.6
CCOC(=O)c1ccc(N2Cc3ccccc3C2)cc1O	0.3
O=C(CCCn1c(=S)[nH]c2ccccc2c1=O)N1CCCCC1	i
O=C(Cc1ccc(Cl)cc1)Nc1ccccc1CO	i
CCC(Sc1nnnn1-c1ccccc1)C(=O)Nc1nc2ccccc2s1 (stereo not drawn)	i
CCOC(=O)C(C)Sc1ncnc2c1nnn2-c1ccc(F)cc1 (stereo not drawn)	1.2
Cc1cc(C(=O)COC(=O)Cn2cnc3c2c(=O)n(C)c(=O)n3C)c(C)n1C	0.2
COc1ccc(-c2cc(C(=O)Nc3nc4c(C)cccc4s3)c3ccccc3n2)cc1OC	i
Cc1ccc2c(Cl)c(C(=O)Nc3cc(C)on3)sc2c1	1.2
O=C(CCn1nc(-c2ccc(Cl)cc2)c2ccccc2c1=O)NCCN1CCOCC1	0.6
CCN(CC)S(=O)(=O)c1ccc2[nH]cc(C(=O)NCCN3CCCCCC3)c(=O)c2c1	0.3
O=C(CN(Cc1ccco1)C(=O)c1cc(=O)[nH]c2ccccc12)Nc1ccccc1Br	0.7
Cc1noc(C)c1C(=O)N1CCN(Cc2ccccc2)CC1	0.3
CCC(Sc1nnnn1-c1ccccc1)C(=O)NC(C)c1ccccc1 (stereo not drawn)	i
COc1ccc(-c2csc(N3CCC(c4ccccc4)C3)n2)cc1 (stereo not drawn)	i
Cc1cc(NC(=O)c2ccc3nc(-c4ccccc4)c(-c4ccccc4)nc3c2)no1	0.5
COc1ccc(-c2noc(-c3ccccc3F)n2)cc1	0.8
Cc1cccc(OCc2nnc(SCc3cc(=O)n4cc(Br)ccc4n3)o2)c1	1.1
O=C(Cc1cccs1)Nc1nnc(SCC(=O)N2CCCCC2)s1	i

At a glance, 2 of the compounds above:
SMILES	H5N1 antiviral
Cc1oc(-c2ccc3c(c2)OCCO3)cc1C(=O)NC(CCC(=O)O)C(=O)O (stereo not drawn)	2.3
CCn1cc(C(=O)NCC2CCCO2)c(=O)c2cc(S(=O)(=O)N3CCCCCC3)ccc21 (stereo not drawn)	i

Among those listed so far, these contain bromine:
SMILES	H5N1 antiviral
CC(=O)c1nn(-c2cccc(Br)c2)cc1C(=O)c1ccccc1	i
Cc1cc(O)c(NC(=O)c2ccc(Br)o2)cc1C	i
FCCCOc1ccc(-c2nccc(-c3ccc(Br)cc3)n2)cc1	i
Cc1ccc(S(=O)(=O)n2nc(C)c(Br)c2C)c(C)c1C	0.1
Cc1ccc2c(c1)c(C)c(C)n2CC(O)Cn1nc(C)c(Br)c1C (stereo not drawn)	i
O=C(CN(Cc1ccco1)C(=O)c1cc(=O)[nH]c2ccccc12)Nc1ccccc1Br	0.7
Cc1cccc(OCc2nnc(SCc3cc(=O)n4cc(Br)ccc4n3)o2)c1	1.1

Screens (PubChem BioAssay)
